Rango dissoc inh – inhibition of RanGTP-driven Rango-importin beta dissociation; O95149+P62826; Biochemical FRET Rango-importin beta, RanGTP-induced dissociation; Potency, µM (highest dose often 46.1 µM), without a hit: at the highest dose activity change, negative = inhibition; 340,000 tested, 0.071% active; active means falling FRET ratio curve, often poorly fitted, with flat reads before Ran was added; inconclusive means other falling curves, or compound fluorescence or quenching; inactive means flat or rising ratio curve;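 note: potency is the fitted concentration of half-maximal effect; % of control where 0% means no effect; nearly all actives have a fitted effect of over 45% in size; -100% = wells without RanGTP and RCC1; the record marks most hits as doubtful in a second field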
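Compounds preincubate 5 min with complex of recombinant Rango and importin beta in PBS with 1 mM DTT. Ran (0.6 uM) loaded with 2 mM GTP plus 0.2 uM RCC1 starts dissociation; FRET is recorded 45 min later.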
Rango-impB inh – inhibitors of Rango-importin beta complex formation; Q14974; Rango CFP/YFP FRET sensor + importin beta, 45 min; Potency, µM (highest dose often 92.2 µM), without a hit: at the highest dose inhibition of complex formation; 340,000 tested, 0.031% active; active = rising FRET ratio curve, often small or poorly fitted; inconclusive = mostly compound fluorescence or quenching in the first reads; inactive = flat curves in all reads;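 note: potency is the fitted concentration of half-maximal effect; 0% = DMSO wells and 100% = buffer wells lacking importin beta; nearly all actives have a fitted effect of over 15% in size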
Target sequence (Q14974 whole entry, looked up): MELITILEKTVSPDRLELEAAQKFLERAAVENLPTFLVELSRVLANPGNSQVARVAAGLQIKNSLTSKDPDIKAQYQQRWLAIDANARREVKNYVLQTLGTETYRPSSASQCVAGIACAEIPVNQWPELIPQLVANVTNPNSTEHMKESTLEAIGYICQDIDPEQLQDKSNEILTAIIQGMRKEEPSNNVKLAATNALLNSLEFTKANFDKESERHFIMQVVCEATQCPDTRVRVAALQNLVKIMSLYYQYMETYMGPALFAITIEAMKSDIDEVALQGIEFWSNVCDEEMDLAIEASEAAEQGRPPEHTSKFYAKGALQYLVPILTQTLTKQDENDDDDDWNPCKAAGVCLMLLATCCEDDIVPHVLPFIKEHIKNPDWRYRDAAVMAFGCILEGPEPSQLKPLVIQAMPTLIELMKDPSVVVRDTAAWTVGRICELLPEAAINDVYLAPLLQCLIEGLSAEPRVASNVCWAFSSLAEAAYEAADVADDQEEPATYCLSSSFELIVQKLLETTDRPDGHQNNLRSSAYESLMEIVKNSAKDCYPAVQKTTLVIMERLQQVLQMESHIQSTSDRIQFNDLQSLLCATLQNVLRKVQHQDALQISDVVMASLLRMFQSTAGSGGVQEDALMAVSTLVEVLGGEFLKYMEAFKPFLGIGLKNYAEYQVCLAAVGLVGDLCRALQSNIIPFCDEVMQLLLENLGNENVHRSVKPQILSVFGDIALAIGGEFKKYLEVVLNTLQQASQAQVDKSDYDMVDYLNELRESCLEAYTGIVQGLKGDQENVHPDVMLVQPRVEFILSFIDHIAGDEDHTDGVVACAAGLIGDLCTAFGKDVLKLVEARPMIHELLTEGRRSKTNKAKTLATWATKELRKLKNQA
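FRET biosensor (snurportin 1 IBB flanked by EYFP and cerulean), 50 nM, with compound 5 min, then 0.125 microM importin beta in PBS, 1 mM DTT, 0.02% Tween-20, 0.1% BSA. CFP/YFP ratio read after 45 min at room temperature; pre-read flags interference.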
miR-21 FLuc – miR-21 reporter, rising signal. AID 2288. HeLa miR-21 FLuc reporter, luciferase, 48 h. Potency, µM (series often up to 38.3 µM), without a hit: at the highest dose reporter change, positive = more light. 340,000 tested, under 10 active; active = well fitted rising curve with a large enough effect; inconclusive = small, poorly fitted or top-dose-only effect; inactive = no such curve, though single readings can be large or run the other way;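 note: % of control where 0% means no effect; miR-21 action dims this reporter so a rising signal means less miR-21 action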
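HeLa cells endogenously expressing miR-21, stably carrying CMV-driven firefly luciferase with a downstream miR-21 binding site, 2000 cells/well. Titrations up to approximately 40 uM, 48 hours; luciferase luminescence read.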
GLA inh pH 4.5 – inhibitors of human alpha-galactosidase A at pH 4.5. activity change, negative = inhibition, % at 105 µM. purified enzyme, 4-MU-alpha-Gal fluorescence, pH 4.5. 230,000 tested, under 10 active; inconclusive = small, poorly fitted or top-dose-only inhibition, or a rising curve; inactive = flat fitted curve, though single readings scatter; no compound was filed as active;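 note: 0% = full activity with enzyme and -100% = basal without enzyme; dose as in the result columns while the protocol names 77 µM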
* hit, by the source's call; u = inconclusive; x = not tested or not shown; & = joins results of further samples; [ ] = dose if it differs, or a comment. This is a subset. The share of hits here may be higher or lower than overall.

compound	GLA inh pH 4.5	Rango dissoc inh	Rango-impB inh	miR-21 FLuc
O=C(Nc1cccc(S(=O)(=O)N2CCCCC2)c1)c1ccc(Cl)nc1	x	7%	0.2%	x
Nc1ncnc2c1ncn2[C@@H]1O[C@H](CNCC(O)CO)[C@@H](O)[C@H]1O (stereo partly specified)	x	0%	-1.2%	x
CNC(=O)c1sc(=S)n(-c2ccc(OC)cc2)c1N	-17	13%	-0.1%	-6%
N#Cc1ccc(NC(=O)c2cccs2)nc1	x	-4%	-2.2%	-43%
CN(C)c1ccc(C2CNC(c3ccc(Cl)c([N+](=O)[O-])c3)c3[nH]c4ccccc4c32)cc1 (stereo unspecified)	7	u	-8.9%	11%
Cc1ccc(OCC(=O)NNC(=O)CCC(=O)NCc2ccccc2)cc1	8	-2%	0.9%	0%
COc1ccc(Cn2nnnc2C(c2ccccc2Cl)N2CCN(C)CC2)cc1 (stereo unspecified)	-7	1%	-4.0%	-6%
COc1cc(C(O)c2nc3ccccc3s2)cc(OC)c1OC (stereo unspecified)	8	7%	0.4%	19%
COc1ccc(Cl)cc1S(=O)(=O)N1CCN(C(=O)c2ccco2)CC1	-1	-1%	-2.0%	-12%
Cc1nc(NC(=O)/C=C/c2ccccc2)sc1C(=O)N1CCCCC1	-3	-9%	1.5%	-12%
C=CCc1ccc(OCc2ccc(C(=O)Nc3ccc(NC(C)=O)cc3)o2)c(OC)c1	x	8%	-0.1%	-26%&-31%
COc1cc(/C(C)=N/NC(=O)C(O)(c2ccccc2)c2ccccc2)ccc1O	-3	-16%	2.5%	0%
Cc1noc(C)c1COc1ccccc1C(=O)N(C)Cc1ccc(C(C)(C)C)cc1	x	31%	0.7%	x
CC1CN(C(=O)c2cc(S(=O)(=O)N3CCN(c4ccccc4)CC3)ccc2Cl)CC(C)O1 (stereo unspecified)	x	3%	-0.3%	x
O=C(Nc1nc2ccccc2s1)c1ccc(N2CCCCC2)c([N+](=O)[O-])c1	-2	29%	11%	4%
O=C(COC(=O)C1=COCCO1)Nc1ccccc1	1	3%	1.1%	-31%
Cc1c(CCOC(=O)CC23CC4CC(CC(C)(C4)C2)C3)sc[n+]1CC(=O)c1ccccc1	-6	1%	2.9%	24%
Cc1[nH]c2ccccc2c1C(=O)COC(=O)Cn1c(C(F)(F)F)nc2ccccc21	-4	2%	0.3%	0%
Cc1nc2c(=O)[nH]c(=S)[nH]c2[nH]c1=O	x	-16%	u	x
COCCNC(=O)CN(C(=O)CCC(=O)Nc1ccccn1)c1ccc(C)cc1C	x	17%	-0.4%	-1%
CCN(Cc1cc2ccc(C)cc2[nH]c1=O)C(=O)c1ccncc1	-3	x	x	9%
CCOC(=O)C1CCCN(S(=O)(=O)c2ccc(Br)c(OC)c2)C1 (stereo unspecified)	-4	-21%	0.8%	-5%
CCCCCCNC1=NCCS1	5[21.1 µM]	18%	-1.2%	0%
COc1ccc(NC(=O)CSc2nc(C3CC3)nc3ccccc23)cc1	x	-9%	0.7%	28%
O=C1CCc2cc(NS(=O)(=O)c3ccc(F)cc3)cc3c2N1CC3	x	3%	6.3%	x
Cc1ccc(S(=O)(=O)N2CCOCC2)cc1NC(=O)Cn1nc(C)c([N+](=O)[O-])c1C	x	-1%	2.4%	x
CS(=O)(=O)NCCCc1ccccc1	3	6%	0.1%	-3%
CCO[C@H]1OC(C(=O)NCc2nc3ccccc3[nH]2)=C[C@@H](c2cn(C(C)=O)c3ccccc23)[C@@H]1CCCO	x	-19%	-1.9%	x
Cc1ccc(S(=O)(=O)NC(CN2CCOCC2)=NCCNS(=O)(=O)c2ccccc2)cc1	9	20%	2.6%	-1%
CCOCCCn1c(C)nc2c(c1=O)c1nc3ccccc3nc1n2-c1ccc2c(c1)OCCO2	-8	-17%	4.3%	-3%

Three entries from above, with two lines to a compound.
The line under a structure holds: GLA inh pH 4.5 | Rango dissoc inh | Rango-impB inh | miR-21 FLuc
Cc1nc(NC(=O)/C=C/c2ccccc2)sc1C(=O)N1CCCCC1
 : -3 | -9% | 1.5% | -12%
C=CCc1ccc(OCc2ccc(C(=O)Nc3ccc(NC(C)=O)cc3)o2)c(OC)c1
 : x | 8% | -0.1% | -26%&-31%
COc1cc(/C(C)=N/NC(=O)C(O)(c2ccccc2)c2ccccc2)ccc1O
 : -3 | -16% | 2.5% | 0%

Going on with the list:
compound	GLA inh pH 4.5	Rango dissoc inh	Rango-impB inh	miR-21 FLuc
COCCN1C=C2C(=O)C(C)(OC(=O)CCC(=O)OC)C(=O)C(Br)=C2C=C1c1ccc(OC)cc1 (stereo unspecified)	9	u	u	x
CC(C)CN1C=C2C(=O)C(C)(OC(=O)C3CCCC3)C(=O)C=C2C=C1c1ccsc1 (stereo unspecified)	3&-5	-12%	u	-1%
Cc1ccc(CS(=O)(=O)Cc2ccc(C(=O)NC3CCCC3)o2)cc1	x	2%	-1.7%	6%
CC(C)NC(=O)c1ccc(COc2ccc(C(C)(C)C)cc2)o1	x	30%	2.8%	2%
COC(=O)c1ccc2c(=O)n(CCCCCC(=O)O)c(=S)[nH]c2c1	4	6%	3.1%	25%
Cc1ccc(C(C)C)c(OCCCN2CCc3ccccc3C2)c1	x	-12%	-1.7%	14%
CCOc1ccc(CCNC(=O)CCc2nnc3ccc(N4CCOCC4)nn23)cc1OCC	x	0%	0.3%	0%
Cn1nc([N+](=O)[O-])nc1Oc1ccccc1C(=O)N1CCOCC1	-8	8%	-1.5%	1%
O=C(NC1CCOc2ccccc21)c1ccc(=O)[nH]c1 (stereo unspecified)	x	22%	3.0%	8%
CCN(CC)CCOC(=O)c1ccc(N/C=C(/C#N)c2nc(-c3ccc(OC)cc3)cs2)cc1	7	18%	u	-17%
O=C(C1CC(=O)N(c2ccc3c(c2)OCCO3)C1)N1CCN(Cc2ccccc2)CC1 (stereo unspecified)	x	-5%	0.2%	x
COCCCn1c(=O)/c(=C\c2cccc(OC)c2OC)s/c1=C(/C#N)C(=O)Nc1ccc(C(=O)O)cc1	-4	u	u	-2%
N/C(=N\OC(=O)c1ccccc1Cl)c1ccccc1	-7	-10%	-3.6%	-24%
CC(=O)C1=C(C)N(Cc2ccccc2)C(=O)N[C@H]1c1cccs1	-8&6	2%	-4.7%	4%
COC(=O)c1cc(OC(=O)c2ccc(=O)[nH]c2)cc(C(=O)OC)c1	x	-1%	-1.6%	-3%
Cn1cnc([N+](=O)[O-])c1Sc1ccc(C(C)(C)C)cc1	-5	-8%	2.8%	20%
Fc1cccc(/C=N/n2c(C3CCCCC3)n[nH]c2=S)c1	x	0%	-0.5%	-10%
O=C(NCc1ccc2c(c1)OCO2)c1ccc2c(=O)n(C3CCCC3)c(=O)[nH]c2c1	3	29%	-1.0%	6%
CCN(CC)CCCNC(=O)Cn1cnc2sc(C)c(S(=O)(=O)N3CCC(C)CC3)c2c1=O	x	4%	0.8%	0%
CCOc1ccc(CNc2ccc(N3CCN(Cc4ccccc4)CC3)cc2)cc1	x	5%	-2.6%	-5%
COc1cccc(NC(=O)c2cc(-c3ccncc3)nc3c(C)cc(C)cc23)c1	4	15%	1.9%	5%
COCC(C)NC(=O)CSc1ncnc2sc(-c3ccccc3)cc12 (stereo unspecified)	x	8%	0.5%	-7%
COCCNC(=O)CN1CCN(C(c2ccccc2)c2ccccc2)CC1	8	11%	1.7%	-4%
CN(C(=S)NC(=O)c1ccccc1Br)C1CCCCC1	18	15%	-0.3%	-23%
COc1cccc(C2=CC(c3ccc(C)cc3)n3ncnc3N2)c1 (stereo unspecified)	0	x	x	-1%
COc1ccc(-c2nnn(CC(=O)N(Cc3ccco3)C(C(=O)NCC3CCCO3)c3ccco3)n2)cc1 (stereo unspecified)	-14	-8%	0.0%	-15%
COCCNC(=O)CN(Cc1ccco1)C(=O)CCC(=O)Nc1nccs1	x	1%	-1.2%	0%
COc1ccc(CNC(=O)CN(Cc2ccccc2)C(=O)c2csnn2)cc1	0	2%	-6.6%	-1%
CCc1c(C(=O)NC(C)C2CCCO2)csc1C (stereo unspecified)	x	1%	1.5%	1%
COc1ccccc1CC(=O)Nc1ccc2nc(C)sc2c1	-10	6%	-0.2%	-40%
O=C(CN1C(=O)NC2NC(=O)NC21)N/N=C/c1ccc(F)cc1 (stereo unspecified)	5	10%	-3.1%	1%
Cc1ccccc1NC(=O)Cc1nc(-c2c[nH]c(C(=O)N3CCCC3)c2)cs1	x	-21%	-1.2%	x
COc1cc2c(cc1OC)CC(=O)N(C)CC2	7	7%	u	-8%
CCCc1cn(S(=O)(=O)c2ccc(OC)cc2OC)nc1N	-5	-16%	1.1%	-27%
O=c1[nH]cc(COCC(F)CCl)c(=O)[nH]1 (stereo unspecified)	3	u	-1.6%	0%
O=C1COc2ccc(S(=O)(=O)NCCc3ccc(Cl)cc3)cc2N1	x	-4%	-2.7%	1%
Cn1c2c(c(=O)n(C)c1=O)NC1(N2)C(=O)Nc2ccccc21 (stereo unspecified)	2	u	u	-4%
CCC(C)CCN1C(Nc2ccccc2)=NC[C@@H]1CC(C)C (stereo partly specified)	x	7%	-1.9%	12%
CSc1cccc(Nc2ccc(S(=O)(=O)N3CCOCC3)cc2[N+](=O)[O-])c1	x	6%	0.1%	x
COc1ccc2c(C)c(CCC(=O)NC3CC3)c(=O)oc2c1	x	1%	1.6%	-9%
CCCCCC(=O)Nc1cccc(S(=O)(=O)NC2=NCCCCC2)c1	x	17%	4.3%	x
CCOC(=O)c1c(S(=O)(=O)N2CCN(c3ccc(F)cc3)CC2)c(C)n(C)c1C	x	-6%	-2.5%	-27%
Cc1c(Cl)cccc1N1C(=O)CC(NNC(=O)c2cccs2)C1=O (stereo unspecified)	2	12%	u	-11%
CC(=O)NCc1cc(-c2ccc(Cl)cc2)no1	-14	2%	-1.3%	-15%
COc1cc(NC(=O)C2=C(N3CCOCC3)/C(=C\c3ccc(Cl)cc3Cl)CC2)cc(OC)c1OC	-1	u	u	-3%
Cc1ccc(S(=O)(=O)NC(C)C(=O)Nc2ccc3c(c2)OCO3)cc1 (stereo unspecified)	x	1%	5.5%	3%
O=C(CSc1ccccn1)Nc1ccc2[nH]c(=O)[nH]c2c1	x	-22%	u	x
Cc1ccc(N=C2C(=O)Nc3c(C)cccc32)cc1	x	18%	3.1%	0%
COc1ccc(/C=C/C(=O)N2CCNC(=O)C2)c(OC)c1	12	3%	1.9%	-33%
C=CCN(C(=O)c1csnn1)C(C(=O)NC1CCCC1)c1cccs1 (stereo unspecified)	x	-6%	4.8%	-1%
O=C(CC1C(=O)NCCN1C(=O)Nc1ccc(F)cc1F)Nc1ccc(F)cc1 (stereo unspecified)	-11	6%	5.3%	4%
Cc1ccc(S(=O)(=O)Nc2cc(C)c(O)c(S(=O)(=O)c3ccc(C)cc3)c2)cc1	-5	-3%	-0.6%	-3%
N#C/C(=C/c1ccc(-c2ccccc2[N+](=O)[O-])o1)C(=O)NCCN1CCCCC1	-12	0%	2.0%	-7%
CCCCCC(O)CCCC(=O)O (stereo unspecified)	3	4%	2.7%	x
COCCNC(=O)C(OC(=O)c1nsc(Cl)c1Cl)C(C)C (stereo unspecified)	-2[21.1 µM]	-14%	1.9%	-2%
O=C(N/N=C/c1coc2ccc(Cl)cc2c1=O)c1cc(O)cc(O)c1	x	-14%	5.4%	19%
O=S(=O)(c1ccccc1)c1nc(-c2ccccc2Cl)oc1NCCCN1CCOCC1	x	-9%	0.6%	x
Cc1ccc(C(=O)N/N=C\c2cccs2)cn1	0	-5%	-0.7%	-30%
CC(=O)c1ccc(OCCCC(=O)Nc2ccc(C)c(S(=O)(=O)N3CCOCC3)c2)cc1	x	1%	-0.7%	x
CCOCCCNC(=O)CN1C(=O)COc2ccc(S(=O)(=O)N3CCOCC3)cc21	x	0%	0.3%	0%&0%

Bioassay records as filed in PubChem.
